Bioassay records (PubChem BioAssay)
Lassa entry: qHTS for Inhibitors of binding or entry into cells for Lassa Virus. 18,000 compounds, 4.1% hits. Lassa virus pseudotyped entry inhibition, cell-based qHTS; control for the full effect not named in the record; many of its hits are not listed in these tables. Potency, µM (doses to about 49.2 µM), without a hit: top-dose activity change, negative = inhibition, actives largely listed as inhibitors; active = well fitted inhibition curve with a large enough effect; inconclusive = small, poorly fitted or top-dose-only effect; inactive = no such curve, though single readings can be large or run the other way; tested in HEK293 cells; also: luciferase read-out
Marburg entry: qHTS for Inhibitors of binding or entry into cells for Marburg Virus; Marburg virus pseudotype entry/binding inhibition, cell-based; control for the full effect not named in the record; many of its hits are not listed in these tables; 18,000 compounds, 6.5% hits; Potency, µM (doses to about 49.2 µM), without a hit: at the highest dose activity change, negative = inhibition, actives largely listed as inhibitors; active means well fitted inhibition curve with a large enough effect; inconclusive means small, poorly fitted or top-dose-only effect; inactive means no such curve, though single readings can be large or run the other way; tested in HEK293 cells; also: luciferase read-out
* hit, by the source's call; ? = inconclusive; nt = not tested or not shown; & = joins results of further samples; ! = not confirmed by another sample; [ ] = another dose, or the depositor's remark. % is scaled to controls: 0 for no effect and ±100 for the full control effect; potency is read from the fitted curve at half-maximal effect. Only part of the results is shown; the hit share may differ from the screen's.

SMILES | Lassa entry | Marburg entry
CC(=O)N[C@@H](CCCNC(=N)N)C(=O)N[C@H](CC1CCCCC1)C(=O)N[C@@H]1CCC2SC[C@@H](C(=O)N[C@H](CCCNC(=N)N)C(=O)N[C@H](Cc3ccc(Cl)cc3)C(N)=O)N2C1=O (stereo not given in full) | -19% | -9%
CN(CCOc1ccc(CC2SC(=O)NC2=O)cc1)c1ccccn1 (stereo not given) | 3% | 6%
COC(=O)NC(CCc1ccccc1)C(C(=O)OC)C(=O)OC (stereo not given) | 3% | -12%
C[C@]12CC[C@@H]3c4ccc(O)cc4C[C@@H](CCCCCCCCCS(=O)CCCC(F)(F)C(F)(F)F)[C@H]3[C@@H]1CC[C@@H]2O (stereo not given in full) | 6.3µM* | -14%
Nc1c2ccccc2nc2c(O)cccc12 | -12%[17.8 µM] | -16%[17.8 µM]
CC(=O)O[C@H]1CC[C@@]2(C)C(=CC[C@@H]3[C@@H]2CC[C@]2(C)C(=O)CC[C@@H]32)C1 | 2%[17.8 µM] | -18%[17.8 µM]
C=CCC(Nc1ccc(OC)cc1)(C(=O)OCC)c1ccccc1 (stereo not given) | -3% | 17%
COC(=O)COc1ccc(Cl)cc1Cl | 5% | 5%
N[C@H](CS)C(=O)O | 4% | -2%
Nc1ccc(O)c([N+](=O)[O-])c1 | -15%[107 µM] | -16%[107 µM]
OC(c1ccc2c(c1)CN(Cc1cccc3nccnc13)CCO2)C1CCCCC1 (stereo not given) | -1% | -7%
CC=C1C2C=C(C)CC1(N)c1ccc(=O)[nH]c1C2 (stereo not given) | 1% | 9%
Cc1cccc2cc(CN(C(=O)c3ccc(N4CCCCC4)cc3)C3CC3)c(N3CCC(O)CC3)nc12 | ? | -3%
COC(=O)Nc1nc2ccc(Oc3ccc(NC(=O)Nc4cccc(C(=O)O)c4)cc3)cc2[nH]1 | nt | ?
O=C(NCc1ccccn1)c1cnn(-c2nccc(-c3ccccc3F)n2)c1C1CC1 | 3% | -26%
Cc1noc(C)c1-c1ccc2ncnc(NC3CC3)c2c1 | -7% | 14%
O[C@@H]1CN(Cc2cccs2)[C@@H](c2ccccc2)C[C@@H]1n1cc(C2CC2)nn1 | -7% | -24%
COC(=O)CCCC1=CC2=CC(=O)C(C)(OC(=O)c3ccc(Cl)nc3)C(=O)C2=CO1 (stereo not given) | -5% | -17%
C1CCC(NC(=NC2C3CC4CC(C3)CC2C4)N2CCOCC2)CC1 (stereo not given) | ? | 14µM*
CN(c1cc(Cl)c2c(c1)OCO2)c1cc2c(c3c1ccn3C)C1CCC2C1 (stereo not given) | -7% | -7%
C=C1OC(CO)(n2cnc3c(N)ncnc32)C(O)C1O (stereo not given) | -5% | -10%
O=C(NCCN1Cc2ccccc2OC(c2ccsc2)C1)c1ccc2[nH]ccc2c1 (stereo not given) | ? | ?
CCCCCC(=O)/C=C/[C@@H]1[C@@H](C/C=C\CCCC(=O)O)[C@@H](O)C[C@H]1O | 11% | -7%
CCC1(C2CCN(Cc3cccc(Cl)c3)CC2)NC(=O)N(CC2COc3ccccc3O2)C1=O (stereo not given) | -17% | ?
CC[C@H](C)[C@H](NC(=O)[C@H](C)NC(=O)[C@@H](N)C(C)C)C(=O)N[C@H](C(=O)N[C@H](C(=O)N[C@@H](CC(C)C)C(=O)N[C@H](C(=O)N[C@@H](CCCCN)C(=O)O)C(C)C)C(C)C)[C@@H](C)O | -8% | -18%
Cc1cc(C)c2c(CN(C)Cc3ccccc3)cc(=O)oc2c1 | ? | 2.2µM*
C=CCN1[C@H](COCc2ccccc2)C=CS1(=O)=O | 17% | 5%
CC(=O)C1=C(C)C[C@@]2(CC1)C(=O)[C@H](Cc1ccccc1)N(Cc1ccccc1)S2(=O)=O | 7% | -17%
COC(=O)N[C@H](C(C(=O)OC)=C(C)NCc1ccccc1)c1cccc(F)c1 | 4%[8.59 µM] | -11%[8.59 µM]
O=C(O)[C@H]1[C@H]2CN[C@H](C(=O)O)[C@H]21 | 7%&-1% | 7%&-4%

Rewritten with values under each structure: part of the list above
Results follow in this order: Lassa entry | Marburg entry
- COC(=O)Nc1nc2ccc(Oc3ccc(NC(=O)Nc4cccc(C(=O)O)c4)cc3)cc2[nH]1
→ nt | ?
- O=C(NCc1ccccn1)c1cnn(-c2nccc(-c3ccccc3F)n2)c1C1CC1
→ 3% | -26%
- Cc1noc(C)c1-c1ccc2ncnc(NC3CC3)c2c1
→ -7% | 14%
- O[C@@H]1CN(Cc2cccs2)[C@@H](c2ccccc2)C[C@@H]1n1cc(C2CC2)nn1
→ -7% | -24%

Look-ups from the entries so far:
Reading of CC(=O)O[C@H]1CC[C@@]2(C)C(=CC[C@@H]3[C@@H]2CC[C@]2(C)C(=O)CC[C@@H]32)C1 in Marburg entry: -18%[17.8 µM]
Reading of O=C(NCc1ccccn1)c1cnn(-c2nccc(-c3ccccc3F)n2)c1C1CC1 in Lassa entry: 3%

Next part
SMILES | Lassa entry | Marburg entry
O=C(c1cccc(N2CCCC2=O)c1)N1CCC(Oc2cccc(CN3CCN(c4ccccn4)CC3)c2)CC1 | ? | -9%
Cc1oc(-c2cccc(NC(=O)c3ccccc3)c2)nc1CNC(=O)c1cnc2ccccn2c1=O | -5% | 10%
COc1cccc(CN2CCCC(c3nc(-c4ccncc4)ncc3-c3ccccc3)C2)c1O (stereo not given) | -30% | 11µM*
Nc1nc2nc(Cl)[nH]c2c(=O)[nH]1 | -2% | 8%
C[C@H]1[C@@H](C(=O)N2CCCC2)CC(=NOCc2ccccc2)C(=NOCc2ccccc2)C[C@H]1c1ccccc1 | nt | -29%[8.59 µM]
Oc1ccc(CCNCCCCCCNCCc2ccccc2)cc1O | -12% | ?
COC(=O)N[C@H](C[N+](=O)[O-])C(C)(C)C | -6% | 28%
Cc1ccc(CNc2nc(C)c(-c3ccn(CCN4CCOCC4)n3)s2)o1 | -16% | -7%
NC(=O)c1sc(-n2cnc3ccccc32)cc1OCc1ccccc1Br | nt | 16µM*
C[N+]1(C)C[C@@H](O)C[C@@H]1C(=O)[O-] | 2%[17.8 µM] | 2%[17.8 µM]
FC(F)(F)CNc1nccc(-c2cnn3ncccc23)n1 | nt | -4%
C=C[C@@H](C)[C@](C)(O)c1ccccc1 | -14% | 7%
O=C(c1n[nH]c2c1CCCC2)N1CCC(n2c(C3CCCO3)nc3ccccc32)CC1 (stereo not given) | 5% | 13%
CCOC(=O)C1Oc2ccccc2C(c2ccc(OC)cc2)=C1C(=O)OC (stereo not given) | -28% | 6%
O=C(NCc1ccccc1)c1cccc(NC(=O)C2CCCC2)c1 | ? | 2%
COc1ccc2c3c1OC1CC(O)C=C[C@@]31CCN(C)C2 (stereo not given in full) | -1% | 11%
CN1CCc2cc3c(cc2[C@@H]1[C@@H]1C(=O)Oc2c1ccc1c2OCO1)OCO3 | -4% | 4%
CCCCC1=CC2=CC(=O)C(C)(OC(=O)c3ccc(Cl)nc3)C(=O)C2=CO1 (stereo not given) | 4% | -18%
COCc1c(C(=O)N2CCN(c3ccccc3)CC2)cnn1-c1nccc(-c2ccco2)n1 | -18% | 1%
COC(=O)N[C@@H](c1cccc(C)c1)C(C(C)=O)C(=O)OC (stereo not given in full) | 16% | 13%
CCOC(=O)C1=C[C@@]2(CC)CCCN3CCc4c(n1c1ccccc41)[C@H]32 | -26% | ?
Cc1cccc(CNc2nc(-c3ccoc3)nc3ccccc23)c1 | 2% | -17%
Nc1ccccc1C(=O)C[C@H](N)C(=O)O | -4% | 11%
Cc1c(C(=O)N2CCN(C)CC2)sc2ncnc(NCC3(c4ccccc4)CCOCC3)c12 | ? | -23%
CCCCCCCCCCC[C@@H]1C[C@H]2C=CCO[P@@](=O)(O1)O2 | nt | 35%[activator]
O=C(O)Cc1cccc(OCCCN(Cc2cccc(C(F)(F)F)c2Cl)CC(c2ccccc2)c2ccccc2)c1 | ? | -30%
C=CCN(Cc1ccc([N+](=O)[O-])cc1)S(=O)(=O)C=C | ? | -5%
CC(C)C(=O)NC(=O)[C@@H]1CCCN1C(=O)C=Cc1ccccc1 | 25%[8.59 µM] | 1%[8.59 µM]
COc1ccccc1-c1ccnc(-n2ncc(C(=O)NCCCN3CCOCC3)c2C)n1 | 4% | -24%
Oc1cc(O)cc(/C=C/c2ccc(O)c(O)c2)c1 | 22µM* | 20µM*!
O=c1cc(-c2ccccc2Cl)oc2ccc([N+](=O)[O-])c(O)c12 | 4% | 19%
CC[C@H]1C[C@H]2[C@@H]3CCC4=CC(=O)CC[C@@H]4[C@H]3CC[C@]2(C)[C@H]1O | 3% | 5%
C=CCN1C=C2C(=O)C(C)(OC(=O)c3ccc(OC)cc3)C(=O)C(c3ccco3)=C2C=C1CCCC (stereo not given) | 1%[8.59 µM] | 4%[8.59 µM]
COCC(=O)Nc1cc(C(=O)N2CCCCC2c2nccn2C)cc2nc(-c3ccccc3)n(C)c12 (stereo not given) | 3% | 6%
O=C(NCCc1ccccn1)C1CC12CCN(C(=O)c1ccccc1Cl)CC2 (stereo not given) | -5% | -12%
COC(=O)N[C@H](CC(C)=O)c1ccc(Cl)cc1 | -21%[8.59 µM] | 3%[8.59 µM]
O=C1c2ccccc2C(=O)c2c(O)ccc(O)c21 | 2% | -2%
CCCCC/C=C\C/C=C\C/C=C\C/C=C\CCCC(=O)O[C@@H](CO)COCCCCCCCCCCCCCCCC | 1%&-12% | 11%&-13%
COc1ccccc1-c1cncnc1NCCc1cnc[nH]1 | -7% | -24%
CO[C@H]1C=CO[C@@]2(C)Oc3c(C)c(O)c4c(O)c(c5c(nc6cc(C)ccn65)c4c3C2=O)NC(=O)/C(C)=C\C=C[C@H](C)[C@H](O)[C@@H](C)[C@@H](O)[C@@H](C)[C@H](OC(C)=O)[C@@H]1C | -1% | 3%
Nc1ccc([N+](=O)[O-])cc1 | ? | -9%[107 µM]
CCn1c(-c2nonc2N)nc2ccncc21 | 45% | -33%
CC(C)c1c(C(=O)NCc2cccnc2)cnn1-c1nccc(-c2cccs2)n1 | -18% | -19%
O=c1cc(CN2CCN(c3ccccc3)CC2)c2ccccc2o1 | ? | ?
CC1C(=O)OC2CC34C5CC(C(C)(C)C)C36C(OC(=O)C6O)OC4(C(=O)O5)C21O (stereo not given) | -9% | -7%
CCC[C@H]1CN(c2ccccc2)C(=O)[C@H]1CC(=O)Nc1ccccc1 | -22% | -15%
COc1ccc(-c2cc(=O)c3c(O)cc(O[C@@H]4OC(COC5OC(C)C(O)C(O)[C@@H]5O)C(O)C(O)C4O)cc3o2)cc1 (stereo not given in full) | 2% | 12%
CC1(C)CCC[C@]2(C)[C@H]3CC(=O)O[C@]3(C)CC[C@@H]12 | -4% | 13%
CC(C)C[C@@H](CO)NS(=O)(=O)c1c(F)cccc1F | -10% | 1%
CO[C@H]1C=CO[C@@]2(C)Oc3c(C)c(O)c4c(O)c(c5c(c4c3C2=O)=NC2(CCN(CC(C)C)CC2)N=5)NC(=O)/C(C)=C\C=C/[C@H](C)[C@H](O)[C@@H](C)[C@@H](O)[C@@H](C)[C@H](OC(C)=O)[C@@H]1C | ? | ?
COc1ccc(C2/C=C\CC(NC(=O)OCC3c4ccccc4-c4ccccc43)CC(=O)N2Cc2ccccc2F)cc1 (stereo not given) | -12% | ?
CCCCC1C(=O)NC(=O)N(C2CCCCC2)C1=O (stereo not given) | -3% | -7%
C/C=C1\C[N@@+]2(C)CC[C@@]34C(=C(C=O)[C@H]1C[C@H]32)Nc1ccccc14 | -3%[17.8 µM] | -9%[17.8 µM]
c1ccc2sc(C3(NCC4CC4)CCCCC3)cc2c1 | ? | 14µM*
C=CCC(C)(O)c1ccco1 (stereo not given) | 0% | 0%
NC[C@H]1O[C@H](O[C@H]2[C@H](O[C@@H]3O[C@H](CO)[C@@H](O)[C@H]3O)C(O)[C@H](N)C[C@@H]2N)[C@H](N)[C@@H](O)[C@@H]1O (stereo not given in full) | 7%[17.8 µM] | 10%[17.8 µM]
CCCNC(=O)OC[C@H]1O[C@H](CCON=C2C[C@@H](O)[C@@H](O)[C@@H]3[C@H]4C(=O)N(CC)C(=O)[C@@H]4CC[C@H]23)C=C[C@H]1Oc1ccc(OC)cc1 | -3%[8.59 µM] | 0%[8.59 µM]
CC1Nc2ccc(Cl)cc2S(=O)(=O)N1 (stereo not given) | -7% | -5%
C[C@@H](CCCCC(=O)Nc1ccc(C(F)(F)F)cc1)NCCc1cnc[nH]1 | -12% | 2%
C[C@@H]1C(c2ccccc2)=NN(c2ccc(Br)cc2)[C@H]1C(=O)N1CCOC1=O | -21% | -16%

(listing goes on)
SMILES | Lassa entry | Marburg entry
Cc1cccc([C@H]2[C@@H]3C=CC(C)C[C@@H]3C(=O)N2Cc2ccccc2)c1 (stereo not given in full) | ? | 7%
Cc1c(F)c(N2CCNC(C)C2)cc2c1c(=O)c(C(=O)O)cn2C1CC1 (stereo not given) | -1% | 3%
Cc1ccc(-c2ccc(C(=O)NCc3ccccc3)o2)c2ccccc12 | nt | ?
CN1CCCN(C(=O)[C@@H]2C[C@@H](Sc3nc4ccccc4[nH]3)CN2Cc2ccc(OC(F)(F)F)cc2)CC1 | 9% | ?
CCCCCC(=O)/C=C/C=C\C/C=C\C/C=C\CCCC(=O)O | 2%&-12% | 5%&14%
COC(=O)C1CCCCN1Cc1ccc2c(c1)CN(C1CCSCC1)CCO2 (stereo not given) | -18% | -25%
